Screening data: PubChem BioAssay, several laboratories
rRNA inh HTS = inhibits bacterial ribosomal RNA function over humanized ribosomes; AID 720706; GFP signal change (wild-type ribosome), % (test concentration not listed); E. coli WT GFP vs humanized-ribosome RFP mutants, fluorescence, 24 h; stronger effect = lower value; DMSO median 0, no signal -100; actives 1.6% (n = 350,000);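 active = significant combined selectivity score with lowered wild-type GFP, culture density cut under 30%, mutant RFP and density less affected; inactive = any of these conditions unmet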; also: one replicate is shown; some compounds called inactive have numbers as strong as hits
Beta cell apopt = blocks beta cell apoptosis | protection from apoptosis, % (no concentration beside the values) | AID 435005 | actives 0.8% (n = 300,000) | INS-1E cytokine-induced death, ATP luminescence, 48 h; percent of positive-control rescue, neutral wells zero;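 active = all replicates at 75% or more, or half of them and the mean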;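 also: 0% = cytokine-treated negative control wells and 100% = positive control rescue; higher means more ATP so stronger rescue from cytokine killing; wells of about 40 µL received 100 nL stock; the first replicate is given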
T cruzi repl = T. cruzi replication inhibition | T. cruzi beta-gal in NIH3T3, luminescence, 90 h | inhibition, % (no concentration beside the values) | actives 1.4% (n = 300,000);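 active = mean inhibition across valid replicates above about 55%, limit read from the data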;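 also: signal also drops with host cell toxicity which is not excluded here; 0% = plate median of DMSO wells and 100% = zero luminescence signal; higher percent means less beta-gal luminescence so fewer parasites; stock transfer was 50 nL into about 50 µL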
UCH37 inh = inhibitors of human deubiquitinating enzyme UCH37; Q9Y5K5; purified proteasome/UCH37, Ub-AMC cleavage fluorescence; inhibition, % (no concentration beside the values); actives 0.33% (n = 330,000); AID 588478;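 active = mean of two replicates above 20%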;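 also: 0% = compound-free wells with enzyme and 100% = wells lacking proteasome; stock transfer was 100 nL into about 20 µL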
Target sequence (Q9Y5K5 whole entry, looked up): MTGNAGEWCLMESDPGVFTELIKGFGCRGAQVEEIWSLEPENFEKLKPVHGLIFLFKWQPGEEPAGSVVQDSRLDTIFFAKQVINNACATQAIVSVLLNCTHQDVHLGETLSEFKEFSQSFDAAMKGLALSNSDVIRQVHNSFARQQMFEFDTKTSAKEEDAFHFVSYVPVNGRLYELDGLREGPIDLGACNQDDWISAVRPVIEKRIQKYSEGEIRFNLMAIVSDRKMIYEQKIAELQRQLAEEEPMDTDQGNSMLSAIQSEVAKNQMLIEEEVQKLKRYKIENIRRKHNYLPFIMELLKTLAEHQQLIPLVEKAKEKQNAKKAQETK
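Signal – fluorescence, ex 355 nm, em 460 nm · System – Proteasome-bound UCH37 · Input – 0.15 nM proteasome as dispensed · Timing – 30 min preincubation with enzyme, 25 min cleavage at room temperature · Read-out basis – percent inhibition of cleavage signal versus uninhibited and no-proteasome wells · Medium – Tris-HCl pH 7.4 with ATP-MgCl2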
E coli growth = E. coli growth inhibition; Escherichia coli growth, OD600, 23 h; stronger effect = lower value; OD600 absorbance (no concentration beside the values); actives 0.21% (n = 330,000);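 active = OD600 absorbance below the run mean of sample wells minus 3.6 SD, in any replicate, cut at about 0.56 in these data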;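 also: stock transfer was 300 nL into about 60 µL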
FGF22 binding = binders of recombinant human FGF22 by thermal shift | actives 1.5% (n = 340,000) | SYPRO orange fluorescence; percent of sucrose octasulfate shift, DMSO zero | AID 651658 | calls only at 9.99 µM | Q9HCT0;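 active = melting point raised past a set limit in the mean and every replicate; three in four hits are not shown here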
Target sequence (Q9HCT0 whole entry, looked up): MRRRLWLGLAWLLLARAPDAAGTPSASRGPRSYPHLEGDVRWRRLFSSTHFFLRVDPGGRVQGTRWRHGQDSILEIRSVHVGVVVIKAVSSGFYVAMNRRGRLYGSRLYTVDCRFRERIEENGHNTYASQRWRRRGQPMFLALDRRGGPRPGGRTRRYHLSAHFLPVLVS
MLL AF4-AF9 inh = blocks AF4 peptide binding to human AF9; inhibition, % at 10 µM; AlphaScreen, biotin-AF4 peptide binding to FLAG-AF9; actives 0.47% (n = 350,000); P42568;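 active = every replicate reaching a set inhibition limit, whatever the replicate mean, cut at about 25% in these data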;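 also: 0% = plate neutral control median and 100% = total signal loss; the record names both 10 and 1 µM as test concentration; the first replicate is given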
Target sequence (P42568 whole entry, looked up): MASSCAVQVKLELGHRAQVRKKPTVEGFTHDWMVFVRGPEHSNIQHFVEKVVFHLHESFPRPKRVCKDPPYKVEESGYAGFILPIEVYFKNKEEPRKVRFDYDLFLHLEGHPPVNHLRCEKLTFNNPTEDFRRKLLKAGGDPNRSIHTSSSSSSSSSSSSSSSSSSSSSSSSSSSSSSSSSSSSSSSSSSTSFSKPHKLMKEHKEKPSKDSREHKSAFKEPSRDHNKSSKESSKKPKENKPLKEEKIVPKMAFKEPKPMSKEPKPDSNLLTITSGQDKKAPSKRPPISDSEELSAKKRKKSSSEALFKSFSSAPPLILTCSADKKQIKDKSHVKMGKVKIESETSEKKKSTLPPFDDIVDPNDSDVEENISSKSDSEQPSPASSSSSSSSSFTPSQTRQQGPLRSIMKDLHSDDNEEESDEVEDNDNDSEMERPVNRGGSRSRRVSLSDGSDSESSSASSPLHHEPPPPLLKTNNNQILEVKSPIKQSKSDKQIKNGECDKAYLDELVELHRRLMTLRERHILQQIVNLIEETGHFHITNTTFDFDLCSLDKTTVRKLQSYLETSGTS
Bfl-1 A1 inh = inhibitors of the anti-apoptotic protein A1, read as caspase activation; MEF A1-2A-BIM cells, Caspase-Glo 3/7 luminescence, 3 h; percent of clofoctol response, vehicle zero; caspase activation, % (concentration not given with the values); actives 0.066% (n = 330,000);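 active = over half of replicate activation scores above 10%, or exactly half above 10 with the replicate mean above 10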;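 also: wells of about 30 µL received 50 nL stock; many hits fall short of the cut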
rRNA inh HTS OD600 = further read-out of rRNA inh HTS, marked with its call; OD600 change, %; measured here: OD600 growth;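 optical density of the mix in the first replicate; 0 = DMSO median and -100 = no signal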
rRNA inh HTS RFP = also measured in rRNA inh HTS; calls as there; RFP signal change, %; measured here: RFP humanized mutant strains;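 first replicate; 0 = DMSO median and -100 = no signal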
* hit, by the source's call; i = inactive; . = no result given; + = active, no number.

SMILES	rRNA inh HTS	rRNA inh HTS OD600	rRNA inh HTS RFP	Beta cell apopt	T cruzi repl	UCH37 inh	E coli growth	FGF22 binding	MLL AF4-AF9 inh	Bfl-1 A1 inh
CC(=O)NC(CC(=O)Nc1ccc(S(=O)(=O)N2CCCC2)cc1)c1ccccc1 (stereo not given)	.	.	.	-14	-9	1.9	0.72	.	.	-0.9
NN=C1c2ccccc2C(=O)C1C(=O)C(c1ccccc1)c1ccccc1 (stereo not given)	-48	-67	-4.7	.	.	6.2	0.63	i	1.0	.
Cc1ccc(S(=O)(=O)N2CC3(C)CN(S(=O)(=O)c4ccc(C)cc4)CC(C)(C2)C3)cc1	10	8	-6.2	-4	-3	5.8	0.75	i	-32	1.1
CC(=O)Nc1ccc(S(=O)(=O)NCC2CCC(C(=O)NC(C)c3ccccc3)CC2)cc1 (stereo not given)	7	16	-0.3	-2	-15	3.8	0.67	.	0.5	-0.1
CCN=C1Cn2c(nc3scc(-c4ccccc4)c3c2=O)CN1CC	.	.	.	0	.	-41	0.72	.	.	0.1
COc1cc(S(=O)(=O)Nc2cccnc2)ccc1Cl	-2	3	-1.9	.	-8	5.0	0.66	i	-1.9	-0.8
CC(=O)N/C(=C\c1ccccc1)C(=O)OCC(=O)NC(C)C12CC3CC(CC(C3)C1)C2 (stereo not given)	.	.	.	1	6	5.6	0.68	.	.	-0.2
O=[N+]([O-])c1ccc(/C=N/Nc2ccc3ccccc3c2)o1	2	2	33	9	39	.	.	+	3.2	-1.1
Fc1ccc(OCCOCCN2CCCC2)cc1	2	10	1.0	-6	15	4.5	0.69	i	-8.8	-0.3
Cc1cc(C)nc(N(C#N)S(=O)(=O)c2ccccc2Cl)n1	.	.	.	-3	-17	4.2	0.67	.	.	0.5
O=C(CN1CCCCC1)NC(=O)NC1CCCCC1	.	.	.	-7	.	0.7	0.69	i	-0.6	0.0
CCC(=O)N1CCc2cc(S(=O)(=O)CCC(=O)Nc3c(C)n(C)n(-c4ccccc4)c3=O)ccc21	.	.	.	1	.	-0.4	0.69	.	.	0.5
COc1ccc(CNC(=O)CCC(=O)c2ccc(F)cc2)cc1OC	5	3	2.9	2	.	0.1	0.71	i	-5.8	1.4
CC(=O)Nc1ccccc1C(=O)N1CC(C)OC(C)C1 (stereo not given)	.	.	.	-2	-9	2.5	0.73	.	.	0.8
COCCCNC(=O)CC1C[C@H](C(=O)N(C(C)C)C(C)C)[C@@]2(C)c3[nH]c4ccc(OC)cc4c3CCN2C1=O (stereo not given in full)	8	18	0.9	.	.	2.8	0.69	i	-1.4	.
C=CCNC(=O)c1ccccc1NC(=O)C1CC(=O)N(C(C)C)C1 (stereo not given)	20	13	5.5	2	5	1.4	0.66	i	3.3	0.3
O=C(Nc1ncc([N+](=O)[O-])s1)c1ccc2c(c1)OCO2	-26	-33	14	60	27	.	.	i	4.4	-6.8
O=C(O)C1C2CCC(CC2)C1C(=O)N1CCN(Cc2ccc(F)cc2)CC1 (stereo not given)	-1	3	-2.6	0	4	-1.1	0.65	i	2.1	1.4
O=C1C=CC(=O)N1c1ccc2c(c1)Cc1cc(F)ccc1-2	.	.	.	.	.	1.4	0.68	i	-2.0	.
Cc1nnc(SC(C(=O)Nc2cc(Cl)cc(Cl)c2)c2ccccc2)[nH]c1=O (stereo not given)	-36	-66	-1.2	-1	15	2.4	0.68	+	1.0	-0.1
O=[N+]([O-])c1cc(CN2CCC(O)CC2)ccc1Cl	12	-7	2.8	-1	27	-0.1	0.7	i	0.3	0.3
CCCOc1ccc(-c2nc(C#N)c(N3CCN(CC)CC3)o2)cc1	.	.	.	-2	11	-7.9	0.73	.	.	-5.0
Cc1onc(-c2ccccc2)c1C(=O)N1CCCC1	4	3	-0.9	-1	0	1.5	0.69	i	-1.5	0.3
COc1ccc2c(c1)c(N=NC(N)=S)c(O)n2CC(=O)c1ccccc1	12	23	-0.2	.	-7	1.5	0.7	i	2.5	2.2
CCOC(=O)N1CCC(N(CCN(C)C)C(=S)Nc2ccccc2OCC)CC1	10	-1	-2.9	-2	2	1.7	0.68	i	6.7	0.1
C=CCC[C@@H](Cc1ccc(F)cc1)C(=O)O[C@H](CNC(=O)[C@H](CC=C)CC(=O)N(CCO)Cc1ccccc1)c1ccccc1	5	-8	1.7	-2	.	-0.7	.	i	-1.4	0.6
Cc1cc(C)cc(NC(=O)COC(=O)CCn2c(C)csc2=O)c1	2	-1	1.0	1	.	0.6	0.68	i	-0.4	0.3
O=S(=O)(c1cc(F)ccc1F)N1CCC2(CC1)OCCO2	2	-2	-2.4	-3	-6	4.0	0.69	i	0.3	-3.7
Cc1cc(C)c2cc(C(=O)N3CCC(C(=O)c4ccc(F)cc4)CC3)[nH]c2c1	.	.	.	3	.	0.8	0.66	i	0.6	0.4
CC(C)Oc1ccc(/C(O)=C2/C(=O)C(=O)N(Cc3cccnc3)C2c2ccco2)cc1 (stereo not given)	.	.	.	0	1	12	0.71	.	.	0.5
O=C(CSc1nnc(-c2cccc(F)c2)o1)Nc1nncs1	0	1	-0.8	-3	-6	2.6	0.72	.	-5.7	0.6
O=C1CC(N2CCN(S(=O)(=O)c3ccc(Cl)cc3)CC2)C(=O)N1CCc1ccccc1 (stereo not given)	.	.	.	-1	7	0.4	0.7	.	.	0.4
COC(CSc1ncnc2c1oc1nc3c(cc12)COC(C)(C)C3)OC	2	-8	-1.3	.	-7	4.0	0.66	i	-1.1	0.6
CN(C)S(=O)(=O)c1ccc(SCC(=O)Nc2ccc3c(c2)OCCO3)nc1	4	7	-0.2	.	.	3.6	0.64	i	-2.6	.
C/C=C/Cn1c(N2CCCCCC2)nc2c1c(=O)[nH]c(=O)n2C	.	.	.	1	0	5.3	0.74	.	.	-0.3
Cc1cccc(COCC(Cc2ccccc2)N2CCN(C(=O)c3ccc(Cl)c(Cl)c3)CCC2=O)c1 (stereo not given)	-4	-9	-2.6	5	28	1.4	0.67	i	-1.5	-0.3

Single records (already shown). Screens in order: rRNA inh HTS, rRNA inh HTS OD600, rRNA inh HTS RFP, Beta cell apopt, T cruzi repl, UCH37 inh, E coli growth, FGF22 binding, MLL AF4-AF9 inh, Bfl-1 A1 inh
O=C(CSc1nnc(-c2cccc(F)c2)o1)Nc1nncs1 as listed: 0, 1, -0.8, -3, -6, 2.6, 0.72, ., -5.7, 0.6
C/C=C/Cn1c(N2CCCCCC2)nc2c1c(=O)[nH]c(=O)n2C as listed: ., ., ., 1, 0, 5.3, 0.74, ., ., -0.3
Cc1cc(C)cc(NC(=O)COC(=O)CCn2c(C)csc2=O)c1 as listed: 2, -1, 1.0, 1, ., 0.6, 0.68, i, -0.4, 0.3
O=S(=O)(c1cc(F)ccc1F)N1CCC2(CC1)OCCO2 as listed: 2, -2, -2.4, -3, -6, 4.0, 0.69, i, 0.3, -3.7

Continuation.
SMILES	rRNA inh HTS	rRNA inh HTS OD600	rRNA inh HTS RFP	Beta cell apopt	T cruzi repl	UCH37 inh	E coli growth	FGF22 binding	MLL AF4-AF9 inh	Bfl-1 A1 inh
O=C(OCC(=O)c1ccc(Cl)cc1Cl)c1ccc2c(c1)C(=O)N(c1cccc3ncccc13)C2=O	.	.	.	3	-23	1.9	0.73	.	.	-0.9
CC(=N)C1=C(O)CC(C)(C)CC1=O	.	.	.	.	-12	1.2	0.76	.	.	1.2
CCOc1ccc2c(c1)S/C(=C\c1cccs1)C(=O)N2	8	2	0.3	9	-9	-0.8	0.69	i	-33	0.2
COc1ccc(C(=O)COC(=O)Cn2cnc3ccccc3c2=O)c(OC)c1	0	-5	1.5	-6	-3	0.5	0.7	i	-33	0.3
COc1ccc(NC(=O)Nc2nccs2)cc1	.	.	.	-2	-40	-1.8	0.69	.	.	-5.2
N#Cc1ccc(CN2CCN(C(=O)Cn3nc(C(N)=O)c4ccccc4c3=O)CC2)cc1	9	5	0.2	1	5	-0.4	0.68	i	1.7	0.2
Cc1ccccc1NS(=O)(=O)c1ccc(C(=O)NCC(c2ccccc2)N(C)C)cc1 (stereo not given)	1	0	-3.5	-1	8	2.3	0.71	i	1.9	0.8
CC(C)Cn1c(N2CCN(CC(=O)Nc3ccc(Cl)cc3)CC2)nc2ccccc21	4	-1	3.1	-2	42	4.6	0.72	i	0.5	0.2
CC1(C)CC(=O)C(C=NCCN2CCN(CC(=O)Nc3ccc(Cl)cc3)CC2)=C(O)C1	16	10	2.3	-3	-6	3.0	0.67	i	-1.0	-0.4
CC(=O)NC(Cc1c[nH]c2ccccc12)C(=O)Nc1ccc2c(c1)OCO2 (stereo not given)	.	.	.	-7	1	0.3	0.75	.	.	-0.8
O=C(CCNS(=O)(=O)c1ccccc1)OCC(=O)c1ccc(F)cc1	12	11	1.6	0	0	2.8	0.7	i	-1.6	0.6
CN(C(=O)c1ccc(NC(=O)Cc2ccc(NC(=O)C3CCN(C(=O)C4CCCC4)CC3)cc2)cc1)C1CCCC1	-9	-10	1.8	.	.	5.5	0.69	.	8.7	.
CC(=O)NC1(C2CCCCC2=O)CCCCC1 (stereo not given)	.	.	.	-3	-15	2.0	0.73	.	.	0.9
O=S(=O)(NCc1cc(-c2ccccc2Cl)no1)c1ccccc1	.	.	.	.	2	0.4	0.68	.	.	-0.2
C=CC[C@H]1CC(C)=C[C@H](CC=C)N1C(=O)c1cc(COc2ccccc2SC)on1	7	2	2.2	-3	14	5.4	0.69	i	-7.5	0.3
COc1cccc(/C=N/Nc2nnc(C)n2N)c1O	13	13	-3.8	-2	-14	.	.	i	-2.0	-0.4
COc1cc(C2/C(=C(\O)c3ccc4c(c3)OCCO4)C(=O)C(=O)N2Cc2ccco2)ccc1O (stereo not given)	3	15	-0.8	-5	2	9.8	0.65	i	-12	-0.8
CSCCC(NS(=O)(=O)c1ccc(C)cc1)C(=O)N1CCCC1 (stereo not given)	.	.	.	-6	-5	5.7	0.65	i	0.2	-1.2
COC(=O)c1cc(S(=O)(=O)N2CCN(Cc3ccccc3)CC2)cn1C	3	3	-1.1	-6	0	3.0	0.68	i	-7.6	.
CC(CC(=O)N1CCN(S(=O)(=O)c2ccc([N+](=O)[O-])cc2)CC1)c1ccccc1 (stereo not given)	-5	2	-1.8	0	.	2.5	0.66	i	6.0	1.1
Cc1ccccc1OCC(=O)NCC(=O)OCC(=O)c1ccc([N+](=O)[O-])cc1	4	17	-0.2	.	-7	-0.6	0.68	i	-3.8	-0.6
COc1cc(C2C(C(=O)c3ccco3)=C(O)C(=O)N2Cc2cccnc2)cc(OC)c1OC (stereo not given)	6	8	0.9	-4	-17	11	0.68	i	-43	0.4
Cc1cc(C)cc(CN2C(=O)NC3(CCCCCC3)C2=O)c1	-3	-8	0.1	-1	-6	1.4	0.62	i	-1.0	0.5
Cc1ccc2c(c1)C(c1ccc(F)cc1)N(C(=O)C1CC1)CC(=O)N2 (stereo not given)	4	4	2.2	2	-10	6.9	0.72	i	-13	0.2
CCCc1nn(C)c(C(=O)Nc2ccccc2)c1Cl	.	.	.	0	-9	2.7	0.68	.	.	0.4
CCOc1ccccc1NC(=O)CSc1ccc([N+](=O)[O-])cc1	7	8	0.8	-4	3	0.4	0.65	.	-3.7	0.7
CNC(=S)N1CCN(c2ccc(OC)cc2)CC1	.	.	.	-5	3	-2.1	0.7	.	.	0.1

This is a subset; count on the stated rates, not on these rows.
